AID504770 = growth inhibition of E. coli YBA685, primary screen, V. cholerae RctB inhibitors. 130,000 compounds, 0.27% hits. z-score (concentration not given with the values). AID 504770, 2011. E. coli YBA685 rctB-dependent plasmid, OD600 growth, 3 h; hits give low values;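 active means z-score under -2 on both plates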;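 further: wells of about 30 µL received 100 nL stock; score is relative to mean and SD of the test wells; the first replicate is given; strong numbers were not always called active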
Ba CapD inh = Bacillus anthracis CapD inhibitors, primary screen, biochemical, fluorescence intensity; AID 492967, 2010; 140,000 compounds, 0.23% hits; purified CapD enzyme, fluorescence intensity read-out; hits give low values; some hits fall short of the stated cut; z-score (concentration not given with the values); CapD gamma-glutamyltranspeptidase (Bacillus anthracis Ames Ancestor);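 active means z-score under -4 in either of two replicates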;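 further: stock transfer was 100 nL into about 40 µL; score is relative to mean and spread of the plate; one replicate is shown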
The depositor's hits bear a star.

Results for CCOC(=O)N1CCC(N(CCOC)C(=O)Nc2ccc(CC)cc2)CC1 ?
AID504770: -0.35; Ba CapD inh: 0.27

How did Cc1ccc(OS(=O)(=O)c2cccc(C(F)(F)F)c2)c(Br)c1 do in these assays?
Ba CapD inh: 0.61

Results for Cc1ccc2nc(COC(=O)CCCN3C(=O)c4ccccc4C3=O)cc(=O)n2c1 ?
AID504770: 0

What do the screens show for `CCN(CC)c1ccc2cc(-c3nc(-c4ccc(Br)cc4)cs3)c(=Nc3cccc(OC)c3)oc2c1`?
Ba CapD inh: 0.17

How did CN(C)C(=O)c1cn(CCC#N)nc1-c1cccc2ccccc12 do in these assays?
AID504770: -0.05

Results for CCC1Sc2cc(S(=O)(=O)N3CCCc4ccccc43)ccc2NC1=O (configuration not stated) ?
AID504770: 0.2; Ba CapD inh: -1.5

Results for CCCC1NC(=O)N(CN(C)Cc2ccc(C)cc2)C1=O (configuration not stated) ?
AID504770: -0.2

How did CC(C)(C)c1ccccc1OCCCSC#N do in these assays?
AID504770: 1.7; Ba CapD inh: 0.47

How did Cc1noc(C(F)(F)F)c1-c1nc(-c2ccc(Cl)cc2)no1 do in these assays?
Ba CapD inh: -0.35

Results for CCN(CC)C(=O)CSc1nnc(SCc2ccccc2)s1 ?
AID504770: -2.1

Results for CCC1C(=O)N=C(SCC(=O)Nc2ccccn2)NC1=O (configuration not stated) ?
Ba CapD inh: 7.8

How did CCNc1nc2c(=O)[nH]sc2c2c1C(c1cccnc1)C(C#N)=C(N)O2 (configuration not stated) do in these assays?
AID504770: -0.35; Ba CapD inh: 0.67

Reprinted from the part before: 6 entries, followed by the next part.
Results for CCCC1NC(=O)N(CN(C)Cc2ccc(C)cc2)C1=O (configuration not stated) ?
AID504770: -0.2

How did CC(C)(C)c1ccccc1OCCCSC#N do in these assays?
AID504770: 1.7; Ba CapD inh: 0.47

How did Cc1noc(C(F)(F)F)c1-c1nc(-c2ccc(Cl)cc2)no1 do in these assays?
Ba CapD inh: -0.35

Results for CCN(CC)C(=O)CSc1nnc(SCc2ccccc2)s1 ?
AID504770: -2.1

Results for CCC1C(=O)N=C(SCC(=O)Nc2ccccn2)NC1=O (configuration not stated) ?
Ba CapD inh: 7.8

How did CCNc1nc2c(=O)[nH]sc2c2c1C(c1cccnc1)C(C#N)=C(N)O2 (configuration not stated) do in these assays?
AID504770: -0.35; Ba CapD inh: 0.67

How did CC(C)(CC(=O)O)CC(=O)N1CCN(c2ccccc2F)CC1 do in these assays?
Ba CapD inh: -0.46

Results for COc1cccc(-n2c(=S)sc3c(=O)n(-c4ccccc4C)c(=S)[nH]c32)c1 ?
Ba CapD inh: -1.3

What do the screens show for `O=[N+]([O-])c1cccc(C2(O)CN(c3ccc(Cl)cc3)C3=[N+]2CCCS3)c1` (configuration not stated)?
Ba CapD inh: 0.18

Results for N#Cc1ccc(Cn2c(CS(=O)(=O)c3ccccc3)nc3ccccc32)cc1 ?
AID504770: 1.4

What do the screens show for `Cc1cc(C)nc(N/C(=N/S(=O)(=O)c2ccc(Br)cc2)N2CCC(C)CC2)n1`?
AID504770: -1; Ba CapD inh: 4.4

What do the screens show for `CC(C)(C)C(=O)Nc1cccc(Cl)c1Cl`?
Ba CapD inh: -0.43

How did COc1cc2c(cc1OC)N=CCC2 do in these assays?
AID504770: 0.2; Ba CapD inh: 44

What do the screens show for `O=C(CSc1n[nH]c(-c2ccncc2)n1)c1ccc(Br)cc1`?
Ba CapD inh: 0.06

Results for Cc1ccccc1NC(=O)OC1CCCCC1 ?
AID504770: -0.65; Ba CapD inh: -0.84

Results for CCc1ccccc1NC(=O)c1ccc(F)c(S(=O)(=O)NCCc2ccccc2)c1 ?
Ba CapD inh: -0.53

Results for COC(=O)c1c(F)c(F)c(Oc2ccc(Cl)cc2)c(F)c1N1CCCCC1 ?
AID504770: 0.45; Ba CapD inh: 41

Results for CCOC(=O)c1c(NC=O)sc2c1CCCC2 ?
AID504770: -0.45

What do the screens show for `CN1C(=O)CC(C(=O)Nc2ccccc2)SC1=Nc1ccc(Cl)c(C(F)(F)F)c1` (configuration not stated)?
Ba CapD inh: 0.16

How did COc1nccnc1NS(=O)(=O)c1ccc(NC(=O)c2cc3ccccc3oc2=O)cc1 do in these assays?
Ba CapD inh: -0.19

What do the screens show for `O=C(Nc1nc2ccccc2[nH]1)c1ccc(F)cc1`?
AID504770: 0.55; Ba CapD inh: 0.44

Results for OC1C2CC3CC(C2)CC1C3 (configuration not stated) ?
AID504770: 0.05

Results for COc1cccc(OC)c1CNC(=O)CNC(=O)c1cccc(C(F)(F)F)c1 ?
Ba CapD inh: 0.03

Results for COc1cc(C2C(N3C(=O)c4ccccc4C3=O)C(=O)N2c2cccc(C)c2)cc(OC)c1OC (configuration not stated) ?
Ba CapD inh: -0.15

How did O=C(NCCN1CCCCC1)c1ccco1 do in these assays?
AID504770: -0.2; Ba CapD inh: 0.84

Results for CC(C)NC(=O)c1ccc2c(Cl)c3c(nc2c1)CCCC3 ?
AID504770: 0; Ba CapD inh: -0.18

How did Cc1nc2ccccc2c(=O)n1CC(=O)NC(N)=O do in these assays?
AID504770: -0.1

What do the screens show for `Cc1ccc(C)n1CCN1CCN(C(=O)CC#N)CC1`?
AID504770: -1.1; Ba CapD inh: -0.13

How did CNCCC(Sc1ccccn1)c1ccccc1 (configuration not stated) do in these assays?
Ba CapD inh: -0.9

How did CNc1nc(-c2ccccc2)nc(-c2ccccc2)c1C#N do in these assays?
AID504770: -0.85; Ba CapD inh: 1.7

Results for O=C(Cn1cnc2c(nnn2-c2cccc(Cl)c2)c1=O)OCc1ccccc1 ?
AID504770: -0.15; Ba CapD inh: 1.1

Results for COC(=O)c1sc(S(=O)(=O)N2CCN(c3ccccc3OC)CC2)c(C(=O)OC)c1C ?
AID504770: 0.2; Ba CapD inh: 0.65

What do the screens show for `CCOc1ccccc1/C=N/Nc1nc(-c2ccccc2)cs1`?
Ba CapD inh: 1.7

Results for COc1ccc(CNc2ccccc2C(=O)O)cc1OC ?
AID504770: 0; Ba CapD inh: 27

Results for O=C(NCCc1c[nH]c2ccccc12)OCc1ccccc1-c1ccccc1 ?
Ba CapD inh: -0.47

How did COC(=O)c1ccccc1NC(=O)Nc1ccc(N2CCOCC2)c2nonc12 do in these assays?
AID504770: -0.25; Ba CapD inh: -0.69

How did COc1ccc(Cn2cc(-c3ccc(Cl)cc3)cc(C#N)c2=O)cc1 do in these assays?
Ba CapD inh: 2.6

How did CC(C)(C)NC(=O)COc1ccc(CNc2ncn[nH]2)cc1 do in these assays?
AID504770: -0.15; Ba CapD inh: -0.095

What do the screens show for `Oc1ccc(-c2nccc(-c3ccccn3)n2)cc1`?
AID504770: -0.15; Ba CapD inh: -0.66

Results for NC(=O)C(Cc1c[nH]c2ccccc12)NS(=O)(=O)c1ccc(Cl)cc1Cl (configuration not stated) ?
Ba CapD inh: -0.6

What do the screens show for `Cc1nc(C)c(-c2cnc(NS(=O)(=O)c3ccc(Cl)cc3)nc2)s1`?
AID504770: -0.75; Ba CapD inh: 4

Results for COc1cccc(N2CCN(c3ncnc4c3cnn4-c3cccc(C)c3)CC2)c1 ?
Ba CapD inh: -0.2

What do the screens show for `O=C(NCCSCc1ccco1)c1ccc(Cl)cc1`?
Ba CapD inh: 0.23

What do the screens show for `CC(=O)Oc1ccc(-n2c(C)cc(/C=C3\C(=O)NC(=S)N(c4ccccc4)C3=O)c2C)cc1`?
Ba CapD inh: -0.89

What do the screens show for `COc1ccc(/C=C/C(=O)Nc2nc(N)n(-c3ccccc3)n2)cc1`?
AID504770: 0.55; Ba CapD inh: -0.79

Results for C=CCn1c(SCC(=O)c2c[nH]c3ccccc23)nnc1-c1cccnc1 ?
Ba CapD inh: 0.7

What do the screens show for `COc1ccc(NC(=O)CCC(=O)c2ccc(OC)cc2)cc1`?
AID504770: -1.1; Ba CapD inh: 0.4

What do the screens show for `COC1=NS(=O)(=O)c2ccccc21`?
AID504770: 0.5

Results for O=C(O)C1Cc2c([nH]c3ccccc23)C(Cc2ccccc2)N1 (configuration not stated) ?
AID504770: -0.9

Results for COc1cccc(-c2cc(-c3ccccc3)c(C#N)c(SCC(=O)NC3CC3)n2)c1 ?
Ba CapD inh: 2.1

What do the screens show for `COc1cc(Nc2cc(C)nc3ncnn23)cc(OC)c1OC`?
AID504770: 1.4; Ba CapD inh: -0.58

What do the screens show for `N#Cc1c(NC(=O)c2ccc(Cn3cc(Br)cn3)o2)sc2c1CCCCC2`?
AID504770: 0.1; Ba CapD inh: 0.03

How did COC(=O)/C(=C/c1ccc(F)cc1)NC(C)=O do in these assays?
AID504770: 0.2; Ba CapD inh: 0.5

What do the screens show for `Cc1cc(C)n2nc(C(=O)N(C)C(c3ccccc3)c3ccccc3)nc2n1`?
AID504770: -1.7

Results for Nc1ccc2nc(CCCc3nc4ccc(N)cc4s3)sc2c1 ?
AID504770: 0.05; Ba CapD inh: 1

Results for CCn1c(=O)c2sccc2n2c(CCC(=O)NCc3ccccc3)nnc12 ?
AID504770: -0.85; Ba CapD inh: 1.8

What do the screens show for `CCOC(=O)Cn1c(=O)oc2cc(S(=O)(=O)N(CCN(C)C)Cc3ccccc3)ccc21`?
AID504770: 1.2; Ba CapD inh: -1

What do the screens show for `COc1ccc(C2=N/C(=C/c3ccccc3OC(C)=O)C(=O)O2)cc1Br`?
Ba CapD inh: 1.1

What do the screens show for `O=c1onc(-c2cccc(Cl)c2)n1-c1ccccc1`?
AID504770: -0.45; Ba CapD inh: -0.14

Results for COCC(C)Nc1oc(-c2ccc(Cl)cc2)nc1C#N (configuration not stated) ?
AID504770: 1.8

How did COc1ccc(-c2c(C)oc3cc(OC(C)C(=O)O)ccc3c2=O)cc1OC (configuration not stated) do in these assays?
AID504770: 0.65; Ba CapD inh: -0.96

Results for CC(C)CNC(=O)c1cccc(NC(=O)CC(C)C)c1 ?
AID504770: 1.4; Ba CapD inh: -0.15

Results for CC(C)N(C(=O)CSc1nnc(Cn2nnc3ccccc32)n1C)C(C)C ?
AID504770: -0.55

How did C[C@]12CCC3C(CC[C@H]4CC(=O)CC[C@]34C)C1CCC2=O (some centres not stated) do in these assays?
AID504770: 1.2

How did COc1ccc(C(=O)N(c2ccccn2)C2CCCCC2)c(OC)c1 do in these assays?
AID504770: 0.2

How did CCCCC(=O)Nc1ccccc1C#N do in these assays?
AID504770: 0.05; Ba CapD inh: 0.52

What do the screens show for `COc1ccccc1N1CCN(C(=O)c2cc(C)on2)CC1`?
AID504770: -0.65; Ba CapD inh: -0.3

Results for COc1ccc(-c2cc(COc3cc(Cl)c(Cl)cc3Cl)on2)cc1 ?
Ba CapD inh: -0.77

Results for CC(=O)Oc1ccccc1C(=O)N1CCCc2ccccc21 ?
AID504770: -0.55; Ba CapD inh: -0.43

Results for CN(C)N1C(=O)/C(=C/c2cccs2)SC1=Nc1ccccc1 ?
AID504770: 1.1

How did COc1ccc(NC(=O)C(CSCc2ccccc2)N2Cc3ccccc3C2=O)cc1OC (configuration not stated) do in these assays?
AID504770: 0; Ba CapD inh: -0.56

Results for Cc1ccc(C)n1C(CC(=O)O)c1ccsc1 (configuration not stated) ?
AID504770: -0.55; Ba CapD inh: -1.6

Results for COC(=O)Cn1c(O)c(N=NC(=O)C2COc3ccccc3O2)c2ccccc21 (configuration not stated) ?
AID504770: 0.1

Results for COc1cc(C(=O)COC(=O)Cn2cnc3ccccc3c2=O)ccc1OC(F)F ?
AID504770: -0.05

How did Cc1ccc(C)c(C(=O)CN2C(=O)NC3(CCc4ccccc43)C2=O)c1 (configuration not stated) do in these assays?
AID504770: 1.5

Results for CCCCn1c(=O)[nH]c(=O)c2c(C(F)(F)F)cc(-c3ccc(OC)cc3)nc21 ?
AID504770: 0.4

How did CCOC(=O)CC(=O)CSc1nc(-c2cccs2)cc(-c2ccc(OC)cc2)c1C#N do in these assays?
Ba CapD inh: 4

Results for CCN1CCN(C(=O)CC2OC(=O)c3ccccc32)CC1 (configuration not stated) ?
AID504770: 0.35

Some of these compounds in order of count of non-hydrogen atoms, lowest first.
Results for Cc1ccc(C)n1C(CC(=O)O)c1ccsc1 (configuration not stated) ?
AID504770: -0.55; Ba CapD inh: -1.6

Results for CC(=O)Oc1ccccc1C(=O)N1CCCc2ccccc21 ?
AID504770: -0.55; Ba CapD inh: -0.43

How did Cc1ccc(C)c(C(=O)CN2C(=O)NC3(CCc4ccccc43)C2=O)c1 (configuration not stated) do in these assays?
AID504770: 1.5

(list continues)
Results for S=C(NC1CCCCC1)N1CCC(C2C=NC=N2)CC1 (configuration not stated) ?
Ba CapD inh: -0.64

Results for COc1ccc(CCNC(=O)CSc2nc3[nH]ncc3c(=O)n2-c2ccc(Br)cc2)cc1OC ?
Ba CapD inh: -0.05

What do the screens show for `Nc1ccc(-c2cc3ccccc3oc2=O)cc1`?
AID504770: -0.55; Ba CapD inh: 0.28

How did Cc1ccsc1C1C(C#N)=C(N)N(c2ccc(S(N)(=O)=O)cc2)C2=C1C(=O)CC(C)(C)C2 (configuration not stated) do in these assays?
Ba CapD inh: -0.46

Results for O=C(/C=C/c1ccco1)NNC(=O)OCC(Cc1ccccc1)NC(=O)OCc1ccccc1 (configuration not stated) ?
Ba CapD inh: 0.12

Results for CC(=O)N1CCCCC1c1cccnc1.O=[N+]([O-])O.[Ag] (configuration not stated) ?
AID504770: -5.5*; Ba CapD inh: 1.9

How did COC1(NC(=O)c2ccccc2)C(C)=CC(=O)C=C1C do in these assays?
AID504770: -0.2; Ba CapD inh: 0.35

Screening results as filed in PubChem.
